From PubChem BioAssay
NOMO-1 viab: STK33 inhibitor candidate reducing NOMO-1 cell viability; inhibition, % (test concentration not listed); AID 2330; actives 7.5% (n = 37,000); NOMO-1 AML viability, CellTiter-Glo luminescence, 72 h;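 active = most replicates above 80%; inconclusive = exactly half above 80%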;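 note: wells of about 30 µL received 25 nL stock; 0% = median of vehicle wells and 100% = reference inhibitor level; the first replicate is given; inactives centre near 10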
Numbers without * were called inactive; ? = inconclusive. These rows are one share of the data. The share of hits here may be higher or lower than overall.

SMILES	NOMO-1 viab
C[C@@H]1CN([C@H](C)CO)C(=O)Cc2cc(NC(=O)Nc3ccc4c(c3)OCO4)ccc2O[C@H]1CN(C)S(=O)(=O)c1cn(C)cn1	-8.0
Cc1ccccc1-c1nc(SCC(=O)Nc2ccc(F)c(Cl)c2)n[nH]1	3.2
C[C@@H]1CN([C@@H](C)CO)C(=O)c2cc(NC(=O)CCC(F)(F)F)ccc2O[C@H]1CN(C)C(=O)Nc1ccc2c(c1)OCO2	24.9
C[C@@H]1CN([C@@H](C)CO)C(=O)Cc2cc(NC(=O)CCN3CCOCC3)ccc2O[C@@H]1CN(C)Cc1ccccc1	-12.9
C[C@H](CO)N1C[C@H](C)[C@H](CN(C)Cc2ccc(-c3ccccc3)cc2)Oc2ccc(NC(=O)CCC(F)(F)F)cc2C1=O	36.0
CC(C)c1ccc(OCC(=O)Nc2ccccc2C#N)c(Br)c1	3.6
CCc1ccccc1NC(=O)CC1CS(=O)(=O)CC1CC(=O)Nc1ccccc1CC (centres undefined)	29.8
COc1ccc(NC(=O)N(C)C[C@H]2Oc3c(NS(=O)(=O)c4ccc(Cl)cc4)cccc3C(=O)N([C@@H](C)CO)C[C@@H]2C)cc1	-2.6
CS(=O)(=O)N(CC(=O)Nc1cccc(Br)c1)c1cccc(Cl)c1	-7.1
C[C@@H]1CN([C@H](C)CO)C(=O)Cc2cc(NC(=O)CCC(F)(F)F)ccc2O[C@H]1CN(C)C(=O)Nc1ccccc1	-7.1
CCn1c(SCC(=O)Nc2cccc(C(F)(F)F)c2)nnc1-c1ccco1	17.8
C[C@@H]1CCCCO[C@@H](CN(C)Cc2ccc(C(=O)O)cc2)[C@@H](C)CN([C@H](C)CO)C(=O)c2cc(NC(=O)CCCN(C)C)ccc2O1	4.6
C[C@H]1CN([C@@H](C)CO)C(=O)c2cc(NC(=O)Nc3ccc(C(F)(F)F)cc3)ccc2O[C@@H]1CN(C)S(=O)(=O)c1ccccc1	20.4
CNC[C@@H]1Oc2c(NS(=O)(=O)c3cn(C)cn3)cccc2C(=O)N([C@H](C)CO)C[C@@H]1C	-1.7
C[C@H](CO)N1C[C@H](C)[C@@H](CN(C)C)Oc2c(NS(=O)(=O)c3ccccc3)cccc2C1=O	2.4
Cc1ccc(NC(=O)Cn2nc(-c3cccc([N+](=O)[O-])c3)c3ccccc3c2=O)c(C)c1	60.5
C[C@@H]1CN([C@H](C)CO)C(=O)c2cc(NC(=O)CCCCCC(=O)Nc3ccccc3N)ccc2O[C@@H]1CN(C)S(=O)(=O)c1cccs1	?
Cc1c(NC(=O)COc2ccccc2Cl)cccc1C(=O)O	26.5
COc1ccc(NC(=O)CSc2n[nH]c(-c3ccco3)n2)cc1	20.1
CC(C)NC(=O)Nc1ccc2c(c1)C(=O)N([C@H](C)CO)C[C@@H](C)[C@@H](CN(C)C(=O)NC(C)C)O2	18.7
Cc1ccc(S(=O)(=O)Nc2cccc3c2O[C@@H](CN(C)C(=O)Nc2cccc4ccccc24)[C@@H](C)CN([C@@H](C)CO)C3=O)cc1	7.5
CC(=O)c1cccc(NC(=S)NCc2ccco2)c1	6.4
CNC[C@H]1Oc2ccc(NS(C)(=O)=O)cc2CC(=O)N([C@@H](C)CO)C[C@H]1C	-1.2
NC(=O)c1cc([N+](=O)[O-])ccc1NCc1cccnc1	-1.5
C[C@@H]1CCCCO[C@@H](CN(C)Cc2ccc3c(c2)OCO3)[C@@H](C)CN([C@H](C)CO)C(=O)c2cc(N(C)C)ccc2O1	4.9
Cc1noc(C)c1S(=O)(=O)Nc1ccc2c(c1)C(=O)N([C@@H](C)CO)C[C@@H](C)[C@@H](CN(C)S(C)(=O)=O)O2	11.6
C[C@H](CO)N1C[C@H](C)[C@H](CN(C)C(=O)Nc2ccccc2)Oc2c(NC(=O)Nc3ccc(F)cc3)cccc2C1=O	53.6
Cc1noc(C)c1S(=O)(=O)Nc1ccc2c(c1)C(=O)N([C@H](C)CO)C[C@H](C)[C@H](CN(C)C(=O)Nc1ccc3c(c1)OCO3)OCCCC[C@@H](C)O2	-2.9
Cc1ccc(S(=O)(=O)Nc2cccc3c2O[C@H](CN(C)C(=O)Nc2cccc4ccccc24)[C@H](C)CN([C@H](C)CO)C3=O)cc1	35.4
O=C(CSc1nc2ccccc2s1)Nc1cc(Cl)cc(Cl)c1	29.1
COc1ccc(NC(=O)c2ccc(OC(=O)CCN3C(=O)c4ccccc4C3=O)cc2)cc1	29.2
COc1ccc(CN(C)C[C@H]2Oc3c(NC(=O)Nc4ccc(C(F)(F)F)cc4)cccc3C(=O)N([C@@H](C)CO)C[C@H]2C)cc1	49.9
COc1ccccc1CCNC(=O)c1ccoc1C	9.9
C[C@H]1CN([C@@H](C)CO)C(=O)c2cccc(NC(=O)c3ccncc3)c2O[C@@H]1CN(C)C(=O)Nc1ccc(C(F)(F)F)cc1	19.4
CC(C)NC(=O)N(C)C[C@H]1Oc2ccc(NC(=O)Nc3ccc(F)cc3)cc2C(=O)N([C@@H](C)CO)C[C@@H]1C	-15.5
COc1ccc(NC(=O)CN2CCN(S(=O)(=O)N(C)C)CC2)cc1	-8.4
CC(NS(=O)(=O)c1ccc(Cl)cc1)C(=O)Nc1c(F)cccc1F (centres undefined)	18.9
COc1ccc(NC(=O)N(C)C[C@@H]2Oc3ccc(NC(=O)C4CC4)cc3C(=O)N([C@@H](C)CO)C[C@H]2C)cc1	10.7
C[C@H]1CN([C@@H](C)CO)C(=O)Cc2cc(NS(=O)(=O)c3ccccc3)ccc2O[C@@H]1CN(C)CC1CCCCC1	34.0
CCn1cc(C(=O)OCc2ccc3nonc3c2)c(=O)c2ccc(C)nc21	29.6
C[C@@H]1CN([C@@H](C)CO)C(=O)c2cc(NS(C)(=O)=O)ccc2O[C@H]1CN(C)Cc1ccncc1	1.6
COc1ccc(CN(C)C[C@@H]2Oc3ccc(NC(=O)Cc4cn(C)c5ccccc45)cc3C(=O)N([C@H](C)CO)C[C@@H]2C)cc1	-2.7
Cc1cc(=O)[nH]c(SCC(=O)Nc2ccnc3ccccc23)n1	8.7
C[C@H](CO)N1C[C@H](C)[C@@H](CN(C)CC2CC2)Oc2c(NC(=O)c3ccncc3)cccc2C1=O	25.9
OCCN1CCN(CC(O)COc2ccc(Cl)cc2)CC1 (centres undefined)	3.2
CC(C)NC(=O)N(C)C[C@H]1Oc2c(NC(=O)c3nc4ccccc4s3)cccc2C(=O)N([C@H](C)CO)C[C@@H]1C	13.5
Cc1ccccc1C(=O)N1N=C(c2ccc(Br)cc2)CC1c1nc2ccccc2[nH]1 (centres undefined)	56.4
C[C@@H]1CN([C@H](C)CO)C(=O)Cc2cc(NS(=O)(=O)c3cccs3)ccc2O[C@@H]1CN(C)CC1CC1	-13.4
Cc1ccccc1OCC(=O)Nc1cc2nn(-c3ccccc3)nc2cc1Cl	-6.7
Cc1cccc(N2C(=O)CC(SCc3nc4ccccc4[nH]3)C2=O)c1 (centres undefined)	16.5
Cc1cc(SCC(=O)NN)c(C)cc1Cl	14.9
O=C(CSc1ccccn1)N1CCN(S(=O)(=O)c2ccccc2)C1	25.9
Cc1ccc(S(=O)(=O)N(C)C[C@@H]2Oc3ccc(NC(=O)C4CC4)cc3C(=O)N([C@H](C)CO)C[C@@H]2C)cc1	6.9
CC(C)NC(=O)Nc1cccc2c1O[C@@H](CN(C)C(=O)NC1CCCCC1)[C@@H](C)CN([C@@H](C)CO)C2=O	15.2
COc1ccc2c3c([nH]c2c1)[C@H]1C[C@H]2[C@H](C[C@@H](O)[C@H](OC)[C@H]2C(=O)O)CN1CC3	-10.1
Cc1ccc(S(=O)(=O)N(C)C[C@H]2OCCCC[C@@H](C)Oc3ccc(NC(=O)C4CCCCC4)cc3C(=O)N([C@H](C)CO)C[C@@H]2C)cc1	-7.8
C[C@H](CO)N1C[C@H](C)[C@H](CN(C)S(=O)(=O)c2cccs2)Oc2c(NS(=O)(=O)c3ccccc3)cccc2C1=O	3.0
C[C@@H]1CN([C@H](C)CO)C(=O)c2cc(NS(=O)(=O)c3cn(C)cn3)ccc2O[C@H]1CN(C)C(=O)Nc1ccc2c(c1)OCO2	11.2
C[C@@H]1CN([C@@H](C)CO)C(=O)c2cccc(NS(=O)(=O)c3cn(C)cn3)c2O[C@H]1CN(C)Cc1ccc(C(F)(F)F)cc1	-2.0
C[C@H](CO)N1C[C@H](C)[C@H](CN(C)C(=O)Nc2cccc3ccccc23)Oc2ccc(NS(=O)(=O)c3cccs3)cc2C1=O	-6.7
(next part)
SMILES	NOMO-1 viab
CCn1c(SCC(=O)Nc2ccc([N+](=O)[O-])cc2)nnc1-c1ccccc1F	13.0
COc1ccc(C)cc1S(=O)(=O)N(CC(=O)O)c1cc(C)cc(C)c1	-12.8
Cc1noc(C)c1NC(=O)Nc1cccc2c1O[C@H](CN(C)S(=O)(=O)c1ccc(Cl)cc1)[C@H](C)CN([C@H](C)CO)C2=O	14.4
C[C@H]1CN([C@@H](C)CO)C(=O)c2cc(NS(=O)(=O)c3ccc(F)cc3)ccc2O[C@H]1CN(C)Cc1ccc(Oc2ccccc2)cc1	11.0
COc1ccc(CN(C)C[C@H]2Oc3ccc(NS(=O)(=O)c4cn(C)cn4)cc3CC(=O)N([C@H](C)CO)C[C@H]2C)cc1	22.9
CNS(=O)(=O)c1cc(OCC(N)=O)c(C)cc1Cl	22.4
CC(C)Cn1c(=S)[nH]c2ccccc2c1=O	37.1
C[C@H]1CN([C@@H](C)CO)C(=O)c2cccc(NC(=O)NC3CCCCC3)c2O[C@H]1CN(C)S(=O)(=O)c1cccs1	72.0
C[C@@H]1CN([C@H](C)CO)C(=O)c2cccc(NS(=O)(=O)c3cn(C)cn3)c2O[C@@H]1CN(C)C(=O)Nc1ccccc1	13.7
C[C@H](CO)N1C[C@H](C)[C@@H](CN(C)Cc2ccc3c(c2)OCO3)Oc2ccc(NC(=O)NC3CCCCC3)cc2C1=O	-19.1
C[C@@H]1CCCCO[C@@H](CN(C)C(=O)Nc2cccc3ccccc23)[C@@H](C)CN([C@H](C)CO)C(=O)c2cc(NC(=O)c3ccncc3)ccc2O1	16.7
Cc1cc(C(F)(F)F)nc(SCC(=O)Nc2ccc(Cl)cc2)n1	-0.8
COc1ccc(S(=O)(=O)N(C)C[C@H]2Oc3c(NC(=O)C4CCCCC4)cccc3C(=O)N([C@@H](C)CO)C[C@H]2C)cc1	27.6
COc1ccc(NC(=O)N(C)C[C@H]2Oc3ccc(NC(=O)Cc4cn(C)c5ccccc45)cc3C(=O)N([C@@H](C)CO)C[C@@H]2C)cc1	18.0
CCOc1ccccc1CNCc1ccccn1	-3.3

Three of these compounds in another layout:
SMILES | NOMO-1 viab
C[C@H]1CN([C@@H](C)CO)C(=O)c2cc(NC(=O)Nc3ccc(C(F)(F)F)cc3)ccc2O[C@@H]1CN(C)S(=O)(=O)c1ccccc1 | 20.4
CNC[C@@H]1Oc2c(NS(=O)(=O)c3cn(C)cn3)cccc2C(=O)N([C@H](C)CO)C[C@@H]1C | -1.7
C[C@H](CO)N1C[C@H](C)[C@@H](CN(C)C)Oc2c(NS(=O)(=O)c3ccccc3)cccc2C1=O | 2.4

Additional entries:
SMILES	NOMO-1 viab
Cc1cc(C)c(NC(=O)CN(C)S(=O)(=O)c2ccccc2)c(C)c1	35.9
C[C@@H]1CN([C@H](C)CO)C(=O)c2cccc(NS(=O)(=O)c3cn(C)cn3)c2O[C@H]1CN(C)C(=O)Nc1ccc(C(F)(F)F)cc1	-27.9
COc1ccc(NC(=S)NCc2cc(C)n(C)n2)cc1OC	6.1
Cc1ccc(S(=O)(=O)N(C)C[C@@H]2Oc3c(NC(=O)C4CC4)cccc3C(=O)N([C@@H](C)CO)C[C@H]2C)cc1	18.0
Cc1ccc(S(=O)(=O)N(C)C[C@H]2Oc3ccc(NC(=O)Nc4cccc5ccccc45)cc3CC(=O)N([C@H](C)CO)C[C@H]2C)cc1	23.8
CCCc1c(C(=O)O)cc2c(c1O)C(=O)c1c(O)cccc1C2=O	10.9
COc1ccc(N(CC(=O)Nc2cc(C)ccc2C)S(C)(=O)=O)cc1OC	41.7
C[C@H]1CN([C@@H](C)CO)C(=O)Cc2cc(NC(=O)NC3CCCCC3)ccc2O[C@@H]1CN(C)C(=O)Nc1ccc(F)cc1	16.6
C[C@@H]1CCCCO[C@@H](CN(C)Cc2ccc(Cl)c(Cl)c2)[C@@H](C)CN([C@H](C)CO)C(=O)c2cc(NS(=O)(=O)c3ccc(Cl)cc3)ccc2O1	72.6
C[C@H]1CN([C@@H](C)CO)C(=O)Cc2cc(NC(=O)Nc3cccc4ccccc34)ccc2O[C@@H]1CN(C)CC1CC1	-8.7
CC(C)NC(=O)Nc1cccc2c1O[C@@H](CN(C)S(=O)(=O)c1cccs1)[C@H](C)CN([C@H](C)CO)C2=O	-4.7
CCn1c(SCC(=O)Nc2c(C)cc(C)cc2C)nnc1-c1ccc(Br)cc1	30.5
C[C@H]1CN([C@@H](C)CO)C(=O)c2cc(NC(=O)Cc3ccccc3)ccc2O[C@@H]1CN(C)Cc1ccncc1	9.5
C[C@@H]1CN([C@@H](C)CO)C(=O)c2cc(NC(=O)CCCN(C)C)ccc2O[C@H]1CN(C)Cc1ccccc1	1.7
CNC[C@@H]1Oc2ccc(NC(=O)Cc3ccccc3)cc2C(=O)N([C@H](C)CO)C[C@H]1C	-10.2
CC(C)=CCC/C(C)=C/CC(O)/C(C)=C/Cc1cc(C(=O)O)ccc1O (centres undefined)	5.4
Cc1ccc(-c2cn(S(=O)(=O)c3cccc4nsnc34)nc2N)cc1	-1.6

Random excerpt: 7 records from the list.
SMILES	NOMO-1 viab
CC(C)NC(=O)Nc1cccc2c1O[C@@H](CN(C)C(=O)NC1CCCCC1)[C@@H](C)CN([C@@H](C)CO)C2=O	15.2
C[C@H](CO)N1C[C@H](C)[C@H](CN(C)Cc2ccc(-c3ccccc3)cc2)Oc2ccc(NC(=O)CCC(F)(F)F)cc2C1=O	36.0
CCOc1ccccc1CNCc1ccccn1	-3.3
Cc1ccc(NC(=O)Cn2nc(-c3cccc([N+](=O)[O-])c3)c3ccccc3c2=O)c(C)c1	60.5
C[C@H]1CN([C@@H](C)CO)C(=O)Cc2cc(NC(=O)NC3CCCCC3)ccc2O[C@@H]1CN(C)C(=O)Nc1ccc(F)cc1	16.6
CC(C)NC(=O)N(C)C[C@H]1Oc2c(NC(=O)c3nc4ccccc4s3)cccc2C(=O)N([C@H](C)CO)C[C@@H]1C	13.5
CNC[C@@H]1Oc2c(NS(=O)(=O)c3cn(C)cn3)cccc2C(=O)N([C@H](C)CO)C[C@@H]1C	-1.7
